Screens (PubChem BioAssay)
Resorufin fluor = qHTS Assay for Spectroscopic Profiling in Resorufin Spectral Region | hit rate 0.04% among 59,000 | Compound fluorescence, resorufin region 547/598 nm, buffer; hits give high values | AID 588, 2007 | max dye-equivalent concentration, M; active = above 10 nM dye equivalent; inconclusive = 1 to 10 nM; inactive = 1 nM or less; a few of its hits are not listed in these tables; further: highest value over a series up to 38 µM
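Compounds in 100 mM Tris buffer, pH 8.0, incubated 15 min at room temperature, then read with 547 nm excitation and 598 nm emission filters. Fluorescence was converted to dye-equivalent concentration using an on-plate six-point resorufin standard curve.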
TSHR agonist = qHTS Assay for Agonists of the Thyroid Stimulating Hormone Receptor. HEK293-CNG-TSHR cells (CNG channel as cAMP sensor), membrane potential dye, cAMP. Potency, µM (doses to about 57.1 µM), inactives show top-dose activation, actives largely listed as activators. hit rate 0.48% among 73,000; active = well fitted activation curve of enough size with the parental cells flat; inconclusive = any curve in the parental cells; inactive = parental cells flat and receptor cells flat or falling; further: potency means the concentration at half of the fitted maximal effect; % of control where 0% means no effect; weak receptor curves with flat parental cells got no call and are not listed
Target sequence (P16473 whole entry, looked up): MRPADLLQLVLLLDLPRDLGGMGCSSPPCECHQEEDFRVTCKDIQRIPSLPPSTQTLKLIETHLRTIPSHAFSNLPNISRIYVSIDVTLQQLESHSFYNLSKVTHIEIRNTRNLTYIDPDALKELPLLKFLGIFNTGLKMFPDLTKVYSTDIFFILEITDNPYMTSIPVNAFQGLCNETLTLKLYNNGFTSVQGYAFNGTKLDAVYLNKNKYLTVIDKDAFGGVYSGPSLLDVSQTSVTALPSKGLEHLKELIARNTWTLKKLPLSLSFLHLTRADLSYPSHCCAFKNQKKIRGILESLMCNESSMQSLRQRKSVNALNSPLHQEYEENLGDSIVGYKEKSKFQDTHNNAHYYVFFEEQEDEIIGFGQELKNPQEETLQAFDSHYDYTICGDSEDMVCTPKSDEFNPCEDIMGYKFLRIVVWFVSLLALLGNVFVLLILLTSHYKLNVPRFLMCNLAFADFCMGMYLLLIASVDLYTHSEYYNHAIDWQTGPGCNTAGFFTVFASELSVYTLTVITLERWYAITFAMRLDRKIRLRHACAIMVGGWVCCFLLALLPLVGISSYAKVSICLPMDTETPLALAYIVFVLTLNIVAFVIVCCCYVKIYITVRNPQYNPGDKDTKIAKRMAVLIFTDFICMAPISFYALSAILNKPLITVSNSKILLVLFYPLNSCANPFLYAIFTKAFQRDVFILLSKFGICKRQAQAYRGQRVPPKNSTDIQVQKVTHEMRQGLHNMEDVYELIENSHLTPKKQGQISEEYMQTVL
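cAMP rise detected as CNG-channel membrane depolarization by fluorescent dye (emission 590 nm), 30 min after compound, following 60 min dye loading containing 100 uM RO 20-1724 at room temperature. Cells: TSHR/CNG HEK 293, with parental CNG HEK 293 as control.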
A488 fluor = qHTS Assay for Spectroscopic Profiling in A488 Spectral Region; compound autofluorescence, A488 spectral region, dye equivalency; hits give high values; max dye equivalency, M; hit rate 0.1% among 59,000; active = above 10 nM dye equivalent; inconclusive = 1 to 10 nM; inactive = 1 nM or less; about half of its hits are not listed in these tables;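 further: highest value over a series up to 38 µM; compound alone in buffer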
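Autofluorescence read at ex 480/em 540 nm after 15 min RT in 100 mM Tris pH 8.0; compound signal normalized to A488 standard series on each plate, reported as dye-equivalent concentration at each test concentration.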
A647 fluor = qHTS Assay for Spectroscopic Profiling in A647 Spectral Region. max dye-equivalent concentration, M. 59,000 tested, under 10 active. Compound fluorescence, A647 channel (570/671 nm), Tris buffer; active means above 1 µM dye equivalent; inconclusive means 0.1 to 1 µM; inactive means 0.1 µM or less;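 further: values scaled relative to a standard on each plate; highest value over a series up to 38 µM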
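Tris 100 mM pH 8.0; cpd + A647 stds pin-transferred; 15 min RT; CCD imager, ex 570/em 671. Output = A647-equivalent conc. per cpd conc.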
AID923 = qHTS Assay for Allosteric/Competitive Inhibitors of Caspase-1: Spectroscopic Profiling in AFC Spectral Region. hit rate 1.1% among 75,000. Potency, µM (titrated, usually from 57.5 µM), for the others: at the top dose fluorescence increase, usual class: activators. compound fluorescence, AFC spectral region (405/520 nm); almost no hit is shown here; active means well fitted activation curve with a large enough effect; inconclusive means small, poorly fitted or top-dose-only effect;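 further: potency means the concentration at half of the fitted maximal effect; 0% is about no effect; scaled to a free AFC standard on each plate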
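Compound autofluorescence profiled at 405 nm ex/520 nm em during kinetic caspase 1 run (50 nM enzyme, 5 uM Ac-WEHD-AFC, HEPES pH 7.5, 10 mM DTT). Titration up to 57 uM; baseline from regression intercept, normalized to AFC standard curve.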
Starred values were filed as active, the others as inactive; i = inactive; u = inconclusive; x = not tested or not shown; [ ] = remark or other dose.

SMILES | Resorufin fluor | TSHR agonist | A488 fluor | A647 fluor | AID923
Cc1cc(NCCCN2CCOCC2)n2ncc(-c3ccccc3)c2n1 | i | -3%[11.4 µM] | i | 1.2e-08 | -2.9%
O=C(NCc1ccncc1)C12CC3CC(CC(C3)C1)C2 | i | 8% | i | 2.3e-08 | -0.4%
C=CCOC(=O)C1=C(C)NC(=O)NC1C1CC=CCC1 (centres undefined) | x | 1% | x | x | -2.2%
Cc1cccc(-c2noc(CN(C(=O)c3ccc(Br)o3)C(C)C)n2)c1 | i | u | i | 1.5e-08 | 0.0%
COc1ccc(-c2csc(N3CCN(C(=O)c4ccco4)CC3)n2)cc1 | x | 6% | x | x | 1.7%
CCOC(=O)CSC1=C(C#N)C(=O)NC2(CCCCC2)S1 | i | x | i | 6.9e-09 | x
COc1cc(NC(=O)c2ccc(Br)o2)ccc1NC(=O)c1ccccc1Cl | i | 17% | i | 2.3e-09 | 3.3%
COCCNC(=O)c1ccc(NS(=O)(=O)c2cc(C)ccc2C)cc1 | i | 0% | i | 4.7e-08 | 0.1%
Cc1occc1C(=O)OCC(=O)Nc1ccc(F)cc1 | i | x | i | 4.5e-08 | x
CCn1c(=N)n(CC(=O)c2ccco2)c2ccccc21 | i | 6% | i | 1.4e-09 | 4.0%
O=C(CCC(=O)N1CCc2ccccc21)Nc1ccccc1 | i | -1% | i | 1e-09 | 0.0%
O=C1CCC(C(=O)N(Cc2ccco2)C2(C(=O)NC3CCCC3)CCCCC2)N1 (centres undefined) | i | u | i | 1e-09 | -0.2%
Cc1cc2ncn(S(=O)(=O)N3CCCCC3)c2cc1C | i | u | i | 4.4e-08 | 0.5%
O=C(NC1CCCc2ccccc21)C1CCN(S(=O)(=O)c2cccc3nsnc23)CC1 (centres undefined) | i | -3% | i | 1e-09 | 1.6%
Cc1nn(-c2ccccc2)c2c1C(O)n1c(nc3ccccc31)S2 (centres undefined) | i | 3% | i | 1.6e-08 | 0.3%
COc1cc2c(C(=O)N3CCN(C)CC3)c(C)oc2cc1Br | i | -1% | i | 1.5e-08 | 0.1%
CC(C)C(=O)Nc1ccc(C(=O)N2CCN(C(=O)c3ccco3)CC2)cc1 | i | u | i | 3.2e-08 | -0.8%
CCOC(=O)N1CCC(NC(=O)c2ccc3c(=O)n4c(nc3c2)CCCC4)CC1 | i | 2% | i | 3.8e-08 | 0.1%
COc1ccccc1NC1=NC(c2ccc(Cl)cc2)N=C(N)N1 (centres undefined) | i | 6% | i | 2.2e-08 | -2.5%
COC(=O)C(CC(C)C)Oc1ccc2c(C)cc(=O)oc2c1 (centres undefined) | x | 25% | x | x | -2.2%
Nc1nc(SCc2ccccc2)c2ncn(Cc3ccccc3)c2n1 | i | -2%[11.4 µM] | i | 1e-09 | 1.8%[11.5 µM]
O=C(N1CCOCC1)N1CCC(n2nnc3ccccc32)CC1 | i | -2% | i | 6.2e-09 | 0.6%
O=C(COc1cccc(OC(F)F)c1)Nc1ccc(SC(F)F)cc1 | i | u | i | 2e-08 | -1.5%
CCN1C(=O)C(NC(C)=O)c2cc(Br)ccc21 (centres undefined) | i | u | i | 3.1e-08 | -1.1%
COc1cccc([C@H]2Oc3ccc(OC)cc3/C(=N\O[C@@H]3O[C@H](COC(C)=O)[C@H](OC(C)=O)[C@H](OC(C)=O)[C@H]3OC(C)=O)[C@@H]2O)c1 | x | 4%[11.4 µM] | x | x | -0.7%[11.5 µM]
Cc1nn(CC(=O)NC(C)c2ccccc2)c(=O)c2ccccc12 (centres undefined) | i | 8% | i | 9.1e-09 | 1.9%
CCOC(=O)C1CCCN(c2c(NCC3CCCN3CC)c(=O)c2=O)C1 (centres undefined) | x | u | x | x | 2.5%
CCN1C(=S)SC(=O)C1=C1C=C(C)N(CCO)C(C)=C1 | i | 1% | i | 1e-09 | 8.2%
CCC(=O)Nc1c2c(nn1-c1ccccc1C)CSC2 | i | -1%[11.4 µM] | i | 1e-08 | 0.6%
O=C(Nc1ccc2c(c1)OCCO2)C1CCN(S(=O)(=O)c2cccc3nsnc23)CC1 | i | -7% | i | 1e-09 | -0.4%
Cc1[nH]c2ccc(CNS(=O)(=O)c3ccc(S(=O)(=O)N4CCOCC4)cc3)cc2c1C | i | -12% | i | 3.9e-08 | 0.7%
COC(=O)c1ccccc1NC(=O)C1CCN(C(=O)c2cc(OC)c(OC)c(OC)c2)CC1 | x | u | x | x | 1.2%
Cc1ccc(S(=O)(=O)N2CCN(C(=O)CSc3nnc(C)s3)C2)cc1 | x | 7% | x | x | -1.6%
Clc1ccc(OCc2nnc(SCc3nnc(-c4ccccc4)o3)o2)c(Cl)c1 | i | u | i | 1e-09 | 0.6%
O=C(c1cccc(F)c1)N1CCN(CC2CC3C=CC2C3)CC1 (centres undefined) | i | 7% | i | 7.5e-09 | -2.0%
O=c1c(C(c2nnnn2C2CCCCC2)N2CCCCC2)coc2ccc(Cl)cc12 (centres undefined) | i | 13% | i | 3.6e-09 | -0.5%
CCCn1cnc2c(SCc3ccc(Cl)cc3)nc(N)nc21 | i | 8%[11.4 µM] | i | 1.7e-08 | -2.7%[11.5 µM]
N#Cc1sc2nc3c(c(-c4ccco4)c2c1N)CCCC3 | i | x | i | 4e-08 | 6.0%
O=C(Cc1c[nH]c2ccccc12)Nc1nc2ccccc2[nH]1 | i | -18% | i | 1e-09 | 0.5%
CCCn1c(NCc2cc(C)ccc2O)nc2ccccc21 | x | 7% | x | x | -0.5%
CCN(CC)CCCn1c(C)cc2c(c1=O)C(c1cc(OC)c(OC)cc1OC)C(C#N)=C(N)O2 (centres undefined) | i | 4% | i | 1e-09 | -0.1%
CCc1nc2sc3c(c2c(=O)n1N)CCC3 | i | -1% | i | 2.8e-09 | 1.3%
CCOC(=O)COn1c(=O)c(-c2cccs2)[n+]([O-])c2ccccc21 | i | -38%[inhibitor] | i | 2.9e-08 | 15%
CCOC(=O)C1(Cc2ccccc2)NC(c2ccccc2F)C2C(=O)N(CC)C(=O)C21 (centres undefined) | i | u | i | 5.4e-09 | 1.7%
COC(=O)Cc1cnc(NC(=O)C2C3CCC(C3)C2C(=O)O)s1 (centres undefined) | i | -2% | i | 1.6e-09 | 0.9%
COc1ccc(-n2c(=O)cc(N3CCN(c4ccccc4)CC3)[nH]c2=O)cc1 | i | 10% | i | 2.7e-09 | -0.3%
COc1ccccc1OC[C@H](O)CN1CCN(CC(=O)Nc2c(C)cccc2C)CC1 | i | u | i | 3.3e-09 | -0.4%
COc1ccc(N2CCN(C(=O)CCNS(=O)(=O)c3ccc(Br)s3)CC2)cc1 | i | 8% | i | 6.7e-09 | -0.2%
COc1ccc2[nH]c3ccccc3c2c1 | i | -18% | i | 9.7e-09 | -0.6%
COc1ccc(C)cc1N(CC(N)=O)S(=O)(=O)c1ccc(C)cc1 | x | 2%[11.4 µM] | x | x | 1.2%
O=C(C1CCCN1C(=O)c1cccs1)N1CCc2ccccc21 (centres undefined) | i | x | i | 9.6e-09 | -2.8%
O=C(Cn1nc(C(F)(F)F)c2c1CCCCC2)N1CCOCC1 | i | 7% | i | 4.7e-09 | -0.3%
[O-]/[N+](=C\c1ccc(OC(F)F)cc1)c1ccccc1 | x | 0% | x | x | -1.6%
CC1(C)CC(=O)C2=C(C1)NC(=O)CC2c1cc(F)ccc1F (centres undefined) | i | -8% | i | 4.2e-08 | 0.8%
CCOC(=O)CCN(Cc1cccs1)S(=O)(=O)c1ccc(F)cc1 | i | u | i | 1e-09 | -2.9%
O=C(O)C1C2C=CC(C2)C1C(=O)Nc1ccc(C(=O)N2CCCCC2)c(Cl)c1 (centres undefined) | i | -1% | i | 1.7e-08 | 1.2%
O=C(CCN1C(=O)c2ccccc2S1(=O)=O)N1CCN(c2ccccc2)CC1 | i | 2% | i | 1e-09 | 0.7%
COc1ccc(C(=O)NCc2cn3c(C)csc3n2)cc1OC | i | 3%[11.4 µM] | i | 1.6e-08 | 0.0%
CCc1ccc2c(c1)CCCN2C(=O)c1ccccc1C(=O)O | i | u | i | 6.7e-09 | 16%
Cc1oc2c(O)c(O)ccc2c(=O)c1-c1cnn(-c2ccccc2)c1 | x | u | x | x | -1.4%

Another view of some results above:
> O=C(C1CCCN1C(=O)c1cccs1)N1CCc2ccccc21 (centres undefined)
  Resorufin fluor: i; TSHR agonist: x; A488 fluor: i; A647 fluor: 9.6e-09; AID923: -2.8%

> O=C(Cn1nc(C(F)(F)F)c2c1CCCCC2)N1CCOCC1
  Resorufin fluor: i; TSHR agonist: 7%; A488 fluor: i; A647 fluor: 4.7e-09; AID923: -0.3%

> [O-]/[N+](=C\c1ccc(OC(F)F)cc1)c1ccccc1
  Resorufin fluor: x; TSHR agonist: 0%; A488 fluor: x; A647 fluor: x; AID923: -1.6%

> CC1(C)CC(=O)C2=C(C1)NC(=O)CC2c1cc(F)ccc1F (centres undefined)
  Resorufin fluor: i; TSHR agonist: -8%; A488 fluor: i; A647 fluor: 4.2e-08; AID923: 0.8%

Other entries
SMILES | Resorufin fluor | TSHR agonist | A488 fluor | A647 fluor | AID923
C=CCn1c(C)cc(C(=O)COc2ncnc3sccc23)c1C | i | 2% | i | 1.1e-09 | 1.2%
O=C(c1cnccn1)N1CCC[C@@]2(CCN(Cc3ccccc3)C2)C1 | i | 3% | i | 1.9e-09 | 0.2%
CCOc1nc(Nc2ccc(-c3nc4ccccc4o3)cc2)nc(N2CCOCC2)n1 | i | 19% | i | 1.4e-09 | -1.3%
Cc1cc(Cl)ccc1OCC(=O)Oc1c(Cl)c(Cl)c(Cl)c(Cl)c1Cl | i | 16%[11.4 µM] | i | 2.7e-09 | -2.0%[11.5 µM]
Cc1noc(C)c1C(=O)NC1CCCc2ccccc21 (centres undefined) | i | -4% | i | 2e-08 | -0.8%
CCN1C(=O)C2(C(C#N)=C(N)Oc3n[nH]c(COC)c32)c2ccccc21 (centres undefined) | i | 4% | i | 1.9e-09 | -0.4%
Cc1nc(N2CCC(C)CC2)c2oc3ccccc3c2n1 | i | u | i | 1.8e-08 | 0.4%
O=S(=O)(c1cccc(-c2nc3n(n2)Cc2ccccc2-3)c1)N1CCCC1 | i | 13% | i | 1e-09 | 0.4%
COc1ccc(-c2nc(NC(=O)c3cc(C(C)(C)C)nn3C)sc2C)cc1 | i | 13% | i | 1.2e-09 | 0.0%
N#CC1=C(N)NC(SCC(=O)O)=C(C#N)C12CCCC2 | i | 4% | i | 4.1e-08 | 2.2%
CCCCC(=O)NCCNc1nc2c(c(=O)n(C)c(=O)n2C)n1Cc1ccc(F)cc1 | i | -1% | i | 3.9e-09 | 0.5%
CCOC(=O)c1oc2ccccc2c1NC(=O)c1cc(OC)cc(OC)c1 | i | u | i | 1e-09 | -0.6%
Cc1ccc(NC(=O)N2CCC(C(=O)NCc3ccccc3)CC2)cc1 | i | -2% | i | 4.7e-09 | 0.4%
C=CCn1c(=O)c2ccccc2n2c(SCC(=O)NCc3cccs3)nnc12 | i | 2% | i | 2.4e-08 | 0.5%
COc1ccc(NC(=O)N2CCCC3(CCN(C(=O)c4cccn4C)CC3)C2)cc1 | i | -2% | i | 1e-09 | 3.0%
Cc1cc(NC(=O)COn2nnc3ccc(Cl)cc32)no1 | i | -2% | i | 2.6e-08 | 0.8%
COC(=O)COc1ccc(S(=O)(=O)Nc2ccccc2C(=O)OC)cc1 | i | -12% | i | 9.6e-09 | 2.4%
Cc1ccc2nc(N3CCOCC3)c3nncn3c2c1 | x | 15% | x | x | -3.4%
COc1ccc(Nc2nc(N)nc(SCc3nnc(C)s3)n2)cc1 | i | -2% | i | 2.6e-09 | -2.0%
Cc1ccccc1NS(=O)(=O)c1ccc(F)cc1 | i | 7% | i | 1e-09 | -1.3%
COc1cc(-c2nn3c(Cc4ccccc4)nnc3s2)cc(OC)c1OC | i | x | i | 6.7e-09 | -0.7%
COc1ccc(-c2nnc(SCC(=O)/C(C#N)=C(\C)N)o2)cc1 | i | -3% | i | 3.1e-08 | 0.5%

Some of the compounds tested; count on the stated rates, not on these rows.
